# Source: PubChem
# D2 ag: activates the human D2 dopamine receptor; 360,000 compounds, 0.084% hits; activation, % (concentration not given with the values); DiscoveRx PathHunter D2 beta-arrestin, luminescence, 90 min; 100% = 57 uM dopamine signal; P14416; in the data active = activation above about 40%; inconclusive = about 15% to 40%; inactive = below about 15%; note: the text of the record calls up to 30% inactive
# Target sequence (P14416 whole entry, looked up): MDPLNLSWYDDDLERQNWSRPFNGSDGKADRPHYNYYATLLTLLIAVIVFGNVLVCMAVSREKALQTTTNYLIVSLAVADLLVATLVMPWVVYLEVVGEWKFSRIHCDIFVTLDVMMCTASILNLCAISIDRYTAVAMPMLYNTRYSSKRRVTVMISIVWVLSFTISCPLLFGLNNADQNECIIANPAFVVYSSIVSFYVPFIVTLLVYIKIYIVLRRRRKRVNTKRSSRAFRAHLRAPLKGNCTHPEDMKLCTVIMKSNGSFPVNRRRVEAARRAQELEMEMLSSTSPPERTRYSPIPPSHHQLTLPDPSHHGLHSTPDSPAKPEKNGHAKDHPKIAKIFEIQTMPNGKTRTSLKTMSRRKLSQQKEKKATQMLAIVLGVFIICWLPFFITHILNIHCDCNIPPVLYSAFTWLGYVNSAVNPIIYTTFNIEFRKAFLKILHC
#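 DiscoveRx PathHunter D2 beta-arrestin cells (2,100/well) attached overnight, then compound-stimulated 90 min at 37 C in HBSS/10 mM HEPES/0.1% Tween-20 buffer; beta-galactosidase complementation read by luminescence after 1 h at ambient temperature. Dopamine 57 uM final (EC100) as control.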
# PINK1 modulator: PINK1 expression modulation; PINK1 immunofluorescence, high-content cytometry, 24 h; Potency, µM (top dose mostly 76.6 µM), inactives show top-dose activation (PINK1 increase), actives largely listed as activators; 410,000 compounds, 0.2% hits; active = well fitted activation curve with a large enough effect; inconclusive = small, poorly fitted or top-dose-only effect; inactive = flat fitted curve, though single readings scatter; cell line not stated here;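 note: potency is the fitted concentration of half-maximal effect; % of control where 0% means no effect; nearly all actives have a fitted effect of over 65% in size; a mitochondrial uncoupler was the plate control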
#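 Compound titrations (5 concentrations, 24 h) on a stable cell line; DMSO and CCCP controls. Endpoint: fixed-cell PINK1 immunofluorescence with mitochondrial, cell and nuclear markers, scanned by microplate cytometer.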
# gsp antagonist: antagonists of gsp mutant (McCune-Albright syndrome) | Potency, µM (doses to about 76.9 µM), without a hit: at the top dose activity change, negative = inhibition, most hits filed as inhibitors | 340,000 compounds, 0.4% hits | AID 624288 | gsp-mutant cells, cAMP HTRF, 30 min; control for the full effect not named in the record; active = falling curve of any shape with a large fitted effect; inconclusive = falling curve, mostly with a smaller effect; inactive = flat or rising curve; cell line not stated here;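 note: intracellular cAMP measured with PDE inhibitor Ro 20-1724 present during compound exposure; potency is the fitted concentration of half-maximal effect; % is set by controls: 0 for no effect and ±100 for the full control effect; nearly all actives have a fitted effect of over 65% in size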
#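 G418-selected cells were plated in DMEM/10% FBS for 16-24 h at 37C, then treated with compounds plus the PDE inhibitor […] (300 uM solution added) for 30 min at 37C. Intracellular cAMP was measured by HTRF after 30 min lysis at room temperature.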
# Menin MLL FP FL: inhibitors of human menin-MLL interaction, wild-type MLL peptide | Fluorescence polarization, fluorescein-MLL peptide displacement from menin | FP activity change, % at 61.4 µM | 290,000 tested, under 10 active | AID 1766; inconclusive = falling polarisation curve, or a change in total fluorescence; inactive = total fluorescence flat and polarisation flat or rising; no compound was filed as active; the % refers to the polarisation; negative = inhibition;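 note: % of control where 0% means no effect; inhibitors lower the polarisation; unlabelled MLL peptide was the positive control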
# gsp ag: agonists of gsp mutant (McCune-Albright syndrome) | gsp mutant cells, cAMP HTRF, 30 min; control for the full effect not named in the record | Potency, µM (titrated, usually from 76.9 µM), without a hit: top-dose activation (cAMP increase), usual class: activators | 340,000 compounds, 0.13% hits; active = well fitted activation curve with a large enough effect; inconclusive = small, poorly fitted or top-dose-only effect, or another doubt; inactive = no such curve, though single readings can be large or run the other way; cell line not stated here;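 note: phosphodiesterase inhibitor Ro 20-1724 added with compounds to block cAMP breakdown; potency is the fitted concentration of half-maximal effect; nearly all actives have a fitted effect of over 60% in size; about a fifth of the inactives were tested at one dose only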
#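 Cells stably selected in G418 were plated at 2000/well, grown 16-24 hr, then given compounds in DMSO with the PDE inhibitor […] (300 uM solution added) for 30 min at 37C; cAMP was read by HTRF.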
# ClpP mod: qHTS Assay for Activators of ClpP. purified B. subtilis ClpP, FRET peptide cleavage, 20 min. Potency, µM (titrated, usually from 57.5 µM), for inactives: at the top dose activity change, negative = active. 340,000 compounds, 1.9% hits. AID 651965, 2013; active = well fitted falling curve with a large enough effect; inconclusive = small, poorly fitted or top-dose-only effect; inactive = no such curve, though single readings can be large or run the other way; note: potency is the fitted concentration of half-maximal effect; the source files actives as falling curves though it sought activators and does not explain the sign; nearly all actives have a fitted effect of over 65% in size; many hits overshoot -100%
# Target sequence (P80244 whole entry, looked up): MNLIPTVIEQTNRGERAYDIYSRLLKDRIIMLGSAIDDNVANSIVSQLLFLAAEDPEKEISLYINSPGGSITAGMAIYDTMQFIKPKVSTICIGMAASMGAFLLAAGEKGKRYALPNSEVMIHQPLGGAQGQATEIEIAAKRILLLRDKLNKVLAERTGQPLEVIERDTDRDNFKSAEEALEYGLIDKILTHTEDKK
#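 Buffer: 100 mM Tris/HCl pH8, 100 mM KCl, 0.05% low protease BSA, 2.5% glycerol, 0.01% Tween-20. ClpP 10 microg/mL final; 20 min RT; delta FRET normalized to ADEP and DMSO controls.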
# Sfp inh: Sfp phosphopantetheinyl transferase inhibition. Q9F4F7. Potency, µM, inactives show max response, negative = inhibition, usual class: inhibitors. Biochemical Sfp PPTase activity, qHTS. 310,000 compounds, 3.5% hits; active = well fitted inhibition curve with a large enough effect; inconclusive = small, poorly fitted or top-dose-only effect, or another doubt; inactive = no such curve, though single readings can be large or run the other way;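 note: the enzyme is Sfp with the accession as filed and its product quenches rhodamine fluorescence; potency is the fitted concentration of half-maximal effect; 0% = enzyme reaction without inhibitor and -100% = no enzyme wells; top concentration of the series not given in the record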
#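 With Hepes-Na pH 7.6 buffer containing 10 mM MgCl2, Sfp (15 nM) modified BHQ-2-YbbR (12.5 uM) using rhodamine-CoA (5 uM). Two reads 30 minutes apart at 525/598 nm yielded each well's rate.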
# The depositor's hits bear a star; ? = inconclusive; nt = no result given; & = joins results of further samples; [ ] = dose if it differs, or a comment. Not a hit list; about 5.1% have a hit in one of these screens.
SMILES,D2 ag,PINK1 modulator,gsp antagonist,Menin MLL FP FL,gsp ag,ClpP mod,Sfp inh
Cc1cccc(C(=O)NNC(=O)/C=C/C(=O)O)c1,-4.9,4.6%,8%,-0.2,-37%[inhibitor],0.1%,-6%
CCCOc1ccc(Cc2c(O)nc(SC)[nH]c2=O)cc1C,-5.7,1.2%,-8%,4.0,-13%,-2.0%,15%
O=C(COC(=O)c1ccc(F)cc1F)Nc1cccnc1Cl,2.0,0.6%,3%,nt,-39%[inhibitor],0.5%,nt
OCC[n+]1ccc(/C=C/c2c[nH]c3ccccc23)cc1,-0.5,40µM*,?,?,-6%,1.3%,-11%
O=P(COCCCCCOCP(=O)(c1ccccc1)c1ccccc1)(c1ccccc1)c1ccccc1,4.1,2.9%,-6%,-0.3,-21%,1.6%,7%
O=[N+]([O-])c1cccc(-c2csc(CS(=O)(=O)Cc3ccco3)n2)c1,-1.3,1.1%,-15%,1.6,-8%,0.6%,12%
COc1cc(OC)c(C2Nc3ccccc3NC3=C2C(=O)CC(C)(C)C3)cc1OC (stereo unspecified),5.0,0.6%,-2%,0.0,15%,-0.9%,0%
COc1ccc(C2=Nn3c(nnc3-c3ccccn3)SC2)cc1,-1.2,8.9%,-4%,3.0,-16%,1.5%,-9%
Cc1cc(/C=N/NC(=O)C(=O)N2CCCC2)c(C)n1-c1cccc(Br)c1,-1.8,0.9%,6%,1.5,-16%,-1.5%,-19%
CCSc1cc(C2C(C(=O)OC)=C(C)NC3=C2C(=O)CCC3)c(C)o1 (stereo unspecified),5.8,0.0%,7%,-1.2,-15%,-1.0%,-19%
O=C(OCC1CCNCC1)c1ccc(F)cc1,-1.9,0.5%,6%,nt,-8%,-0.7%,nt
Cc1ccccc1SC1CCN(Cc2nc(C3CC3)no2)CC1,-0.7,-0.9%,6%,-1.9,-4%[15.4 µM],nt,-22%
COc1cccc(NC(=O)CC2SC(=Nc3ccccc3)NC2=O)c1 (stereo unspecified),-4.2,0.1%,2%,-1.7,-1%,1.3%,-1%
Cc1cc(C)cc(OCC(=O)Nc2ccc(S(=O)(=O)Nc3ccccn3)cc2)c1,1.5,0.0%,-6%,-3.7,-5%[15.4 µM],nt,3%
COc1cc(S(=O)(=O)N2CCN(c3ccccc3)CC2)ccc1Cl,-0.7,-1.0%,12%,5.5,-28%,-3.2%,11%
CCCOc1ccc2ccccc2c1/C=N/n1cnnc1,-1.5,nt,-7%,4.4,14%,-3.0%,0%
CC(C)C(=O)NC(Nc1cccc([N+](=O)[O-])c1)C(Cl)(Cl)Cl (stereo unspecified),1.6,0.1%,3%,0.6,-36%[inhibitor],-2.4%,10%
O=c1ccc2cc3ccoc3cc2o1,2.8,0.2%,13%,-0.5&-11,nt,-13%,14%&18%
CN(C)CCP(=O)(c1ccccc1)c1ccccc1,3.9,-0.3%,6%,-5.8,1%,nt,15%
Cc1cc(NC(=O)Cn2c(=O)n(Cc3ccccc3)c(=O)c3ccccc32)no1,-2.6,3.4%,-14%,4.1,-56%[inhibitor],-21%,25µM*
COc1ccc(-c2noc(=O)n2CC(=O)N2CCC(Cc3ccccc3)CC2)cc1,-2.0,0.3%,-31%,-2.9,-12%,-0.3%,2%
O=C(CCCCCN1C(=O)CCC1=O)Nc1ccc2c(c1)OCCO2,1.7,-0.2%,10%,3.5,?,-0.7%,-6%
Cc1cc(C)cc(-n2c(C)cc(/C=C3\C(=N)N4N=C(CC(C)C)SC4=NC3=O)c2C)c1,2.0,0.5%,-13%,10,19%,-3.7%,-10%
CCCn1cc(S(=O)(=O)c2ccccc2)c(=O)c2cc(OC)c(OC)cc21,-3.4,-0.9%,4%,nt,-6%,-15%,13%
COCc1cc(=O)n2[nH]c(-c3ccsc3-n3c(C)ccc3C)cc2n1,-2.1,4.8%,-22%,?,19%,-2.1%,56µM*
COc1ccc(/C=N/NC(=O)NC23CC4CC(CC(C4)C2)C3)c(OC)c1,-1.5,15%,-13%,-0.3,-9%,nt,1%
COc1ccc(Br)cc1CNC(=O)CCc1nc(-c2ccccc2F)no1,-2.7,-1.1%,-5%[15.4 µM],0.1,-13%,-7.9%,3%
COC(=O)c1ccccc1NS(=O)(=O)c1ccc(F)cc1,-4.0,7.6%[38.3 µM],-13%,0.9,-45%[inhibitor],-2.1%,-26%
COc1ccc(-c2nnc3sc(-c4cccs4)nn23)cc1OC,3.0,0.0%,-31%,3.6,30%,-1.6%&-4.0%,3%
Cc1cc(NC(=O)CCS(=O)(=O)c2ccc(F)cc2)no1,-1.5,-0.3%,15%,nt,-2%,1.3%,nt
CCCN(CCC)CCCNC(=S)Nc1ccc2nc(N3CCCC3)cc(C)c2c1,-2.7,14%,11%,nt,1%,3.8%,19%
O=C(NC1CCCCC1)C(c1ccc2ncccc2c1)N(Cc1ccc2c(c1)OCO2)C(=O)c1cccs1 (stereo unspecified),2.6,-4.6%[38.3 µM],?,-2.7,8%,-9.2%,-16%
Cc1cnc(CNc2ncnc3ccc(-c4ccc(C(=O)N(C)C)cc4)cc23)cn1,nt,-0.9%,nt,-0.9,nt,nt,8%
CN(C)CC/C=C1\c2ccccc2Sc2cc(F)c(Cl)cc21,-5.0,-3.6%,24%,nt,10%[15.4 µM],-12%,nt
O=C(CSc1ncc(-c2ccccc2)[nH]1)Nc1ccccc1F,2.5,1.6%,0%,-3.2,18%,nt,-1%
S=C(NCc1cccnc1)Nc1ccc(Oc2ccc(Cl)cc2)cc1,2.8,-0.5%,-11%,3.2,-7%[15.4 µM],1.2%,18%
N#Cc1ccc(CN2CCN(C(=O)CN3C(=O)NC4(CCCC4)C3=O)CC2)cc1,1.2,-0.5%,-3%,nt,10%,-1.0%,nt
CCc1ccc(C(=O)CSc2ncn[nH]2)cc1,-0.1,4.5%[38.3 µM],15%,3.1,-21%,2.8%,71µM*
O=C(Nc1cccc(NC(=O)N2CCN(c3ccccc3)CC2)c1)N1CCN(c2ccccc2)CC1,1.0,0.0%,?,-1.0,21%,-1.5%,22%
CCC1S/C(=N/N=C/c2ccco2)N(Cc2ccc(F)cc2)C1=O (stereo unspecified),-1.0,3.8%,-13%,-1.6,-10%,-3.6%,-21%
Cc1cc(C)c(S(=O)(=O)Nc2ccccc2C(=O)OCC(=O)NCc2ccccc2)c(C)c1,-2.3,5.4%,-16%,-3.8,10%[15.4 µM],-3.5%,7%
Cc1cc(/C=C(\C#N)C(=O)Nc2ccccc2)c(C)n1-c1ccc(C(=O)O)cc1,-5.6,-1.0%,?,2.6,-39%,-4.0%,-12%
COc1ccc(NC(=O)c2ccccc2S(=O)c2ccccc2C#N)cc1 (stereo unspecified),1.7,-1.9%,5%,-1.5,-15%,nt,15%
O=[N+]([O-])c1ccc(/C=C/C2=NN(c3ccccc3)C(c3ccco3)C2)cc1 (stereo unspecified),-9.2,?,5%,?,1%[15.4 µM],nt,40µM*
CC1CCC(NC(=O)C2CCC(CNS(=O)(=O)c3cccc4cccnc34)CC2)CC1 (stereo unspecified),3.1,-0.7%,-3%,nt,-6%,-1.6%,12%
Cc1ccc(CNC(=O)[C@H]2O[C@@H](n3ccc(N)nc3=O)[C@H](O)[C@@H]2O)o1,-2.3,2.0%,nt,nt,nt,-0.2%,nt
CC1(c2nnc(-c3cccc(Cl)c3)o2)CC(c2ccc(OC(F)(F)F)cc2)=NO1 (stereo unspecified),0.7,3.8%,5%,-5.6,nt,-1.7%,8%
CCOC(=O)C1=C(C)NC(=S)NC1/C=C/c1ccccc1 (stereo unspecified),3.9,1.7%,-10%,0.0,-17%,-0.6%,-6%
Cc1ccc2c(CC(=O)N3CCN(c4ccccc4)CC3)coc2c1,-2.4,-1.5%,-10%,11,2%[15.4 µM],nt,-25%
CC(NC(=O)COc1ccccc1)C(=O)NCc1ccccc1Cl (stereo unspecified),-4.4,3.1%,5%,nt,-95%[inhibitor],0.4%,nt
Cc1ccc(-c2csc(NC(=O)c3ccc(-c4ccccc4)cc3)n2)o1,0.4,1.9%,-4%,2.4,?,-22%,22µM*
C/C(N)=C(/C#N)C(=O)COC(=O)c1cc2c(s1)CCCC2,2.6,1.4%,6%,3.9,?,-2.6%,7%
CC(C)N1C(=O)CCC1C(=O)NCc1ccccc1Cl (stereo unspecified),-1.8,2.3%,10%,5.7,24%,-1.0%,20%
COc1ccccc1-c1cnn2c(N3CCOCC3)cc(C)nc12,-0.2,3.9%,-9%,37[activator],0%,nt,-3%
Cc1ccc(/C=N/NC(=O)c2ccco2)cc1,-1.0,-1.7%,-14%,3.0,33%,nt,-2%
O=Cc1ccc2noc(-c3ccc(Cl)cc3)c2c1,?,0.7%,2%,10,-5%,-17%,-5%
CCOc1cc(CNn2cnnc2)cc(Br)c1OCC(=O)NC(C)(C)C,-1.7,0.4%,4%,-5.2,4%,0.9%,-4%
c1ccc(-c2ccc3[nH]ccc3c2)cc1,2.1,12%,-3%,nt,15%,-24%,nt
COc1cccc(CNC(=O)CCNS(=O)(=O)c2ccc(C)cc2)c1,-0.3,-1.7%,21%,nt,26%,1.3%,nt
CCOC(=O)N1CCC(C(=O)Nc2ccc(OCC)cc2)CC1,-2.7,0.8%,6%,3.3,-46%[inhibitor],1.8%,9%
# The list goes on.
SMILES,D2 ag,PINK1 modulator,gsp antagonist,Menin MLL FP FL,gsp ag,ClpP mod,Sfp inh
O=C(CNC(=O)c1ccc(Br)o1)NNC(=O)c1ccc(Br)cc1,10,3.4%,-31%,nt,-34%[inhibitor],1.8%,nt
CCCNC(=O)COC(=O)c1ccccc1C(=O)c1ccc(Cl)c([N+](=O)[O-])c1,-1.7,-1.2%,1%,-4.8,-2%,nt,1%
O=C(c1cn(-c2ccccc2)nc1-c1cccs1)N1CCN(c2ccccn2)CC1,-4.1,-3.8%,-10%,2.1,-1%,-29%,-1%
NC(=O)c1ccsc1NC(=O)CSc1nnc(NC2CC2)s1,-4.7,0.1%,5%,nt,-36%[inhibitor],0.8%,nt
Cc1ccc(-c2nc(-c3cccnc3)no2)cc1,-0.1,-0.1%,0%,5.5,-22%,-0.4%,-4%
O=C(NC(=O)N1CCCC1)c1csnn1,1.6,0.8%,3%,2.5,23%[15.4 µM],nt,15%
